PINK1 modulator – changes PINK1 expression; PINK1 immunofluorescence, high-content cytometry, 24 h; Potency, µM (doses to about 76.6 µM), inactives show at the highest dose activation (PINK1 increase), actives largely listed as activators; actives 0.2% (n = 410,000); AID 624263; active = well fitted activation curve with a large enough effect; inconclusive = small, poorly fitted or top-dose-only effect; inactive = flat fitted curve, though single readings scatter; cell line not stated here;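 further: potency means the concentration at half of the fitted maximal effect; % of control where 0% means no effect; nearly all actives have a fitted effect of over 65% in size; a mitochondrial uncoupler was the plate control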
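Compound titrations (5 concentrations, 24 h) on a stable cell line; DMSO and CCCP controls. Endpoint: fixed-cell PINK1 immunofluorescence with mitochondrial, cell and nuclear markers, scanned by microplate cytometer.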
TRPML1 agonist – human mucolipin-1 channel agonism; TRPML1-expressing cells, Ca2+ dye fluorescence, FDSS; host cell line not named in the record; reference of the full effect not given here; activation, % (no concentration beside the values); actives 0.12% (n = 410,000); AID 624414; in the data active = activation above about 50%; inconclusive = about 30% to 50%; inactive = below about 30%; further: 0% is about no effect; the text of the record puts the active cut at 80%
Target sequence (Q9GZU1 whole entry, looked up): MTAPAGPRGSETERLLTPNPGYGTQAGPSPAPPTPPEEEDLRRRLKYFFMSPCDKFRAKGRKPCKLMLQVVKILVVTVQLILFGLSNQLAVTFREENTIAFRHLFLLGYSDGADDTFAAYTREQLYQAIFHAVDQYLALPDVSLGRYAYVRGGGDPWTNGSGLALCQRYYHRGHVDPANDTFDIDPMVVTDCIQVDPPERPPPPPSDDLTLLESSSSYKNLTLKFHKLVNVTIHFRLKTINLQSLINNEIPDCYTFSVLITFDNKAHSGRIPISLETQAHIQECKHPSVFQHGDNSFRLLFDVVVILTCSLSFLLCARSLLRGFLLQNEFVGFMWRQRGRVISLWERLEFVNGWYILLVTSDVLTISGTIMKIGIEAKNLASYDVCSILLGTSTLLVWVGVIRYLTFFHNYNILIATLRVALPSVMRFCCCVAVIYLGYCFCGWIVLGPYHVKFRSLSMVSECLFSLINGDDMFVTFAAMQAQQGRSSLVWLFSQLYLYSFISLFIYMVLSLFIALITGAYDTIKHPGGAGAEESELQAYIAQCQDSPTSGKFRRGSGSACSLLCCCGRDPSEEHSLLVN
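Cells: TRPML1-DL, 1X Tet inducer, ~16 h at 37 degrees C/5% CO2. Dye: ABD Ca8 no-wash + quencher, 45-90 min RT. Read: 10 s baseline, compound add, 110 s agonist phase; 54-4 EC80 (4uM final), 110 s antagonist phase.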
ClpP mod – qHTS Assay for Activators of ClpP; ATP-dependent Clp protease proteolytic subunit (Bacillus subtilis (strain 168)), P80244; AID 651965, 2013; purified B. subtilis ClpP, FRET peptide cleavage, 20 min; actives 1.9% (n = 340,000); Potency, µM (highest dose often 57.5 µM), inactives show at the highest dose activity change, negative = active; active = well fitted falling curve with a large enough effect; inconclusive = small, poorly fitted or top-dose-only effect; inactive = no such curve, though single readings can be large or run the other way; further: potency means the concentration at half of the fitted maximal effect; the source files actives as falling curves though it sought activators and does not explain the sign; nearly all actives have a fitted effect of over 65% in size; many hits overshoot -100%
Target sequence (P80244 whole entry, looked up): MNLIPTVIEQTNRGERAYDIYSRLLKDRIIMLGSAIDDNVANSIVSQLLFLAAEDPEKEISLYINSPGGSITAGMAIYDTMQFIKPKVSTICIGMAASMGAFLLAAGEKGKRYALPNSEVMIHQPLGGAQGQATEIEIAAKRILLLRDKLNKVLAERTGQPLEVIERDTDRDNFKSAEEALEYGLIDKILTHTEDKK
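FRET quenching reversal measured ClpP activation: 10 microg/mL B. subtilis ClpP at pH 8 with the FRET-FV decapeptide, read at 430 nm after 320 nm excitation. The 20-min minus 0-min signal was scaled between DMSO/no-enzyme wells and ADEP (5.8 microM final).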
Numbers without * were called inactive; · = not tested or not shown. The list is partial; rates above refer to the full screens.

Structure	ClpP mod	PINK1 modulator	TRPML1 agonist
C=C(C)C(O)CC/C(C)=C/Cc1c(O)ccc(C(=O)/C=C/c2ccc(O)cc2)c1O (stereo unspecified)	-4.9%	0.2%	·
CC(C)c1cc(NCCN2CCOCC2)n2c(nc3ccccc32)c1C#N	-5.1%	1.3%	·
CC1=C(C(=O)N2CCOCC2)CC(CC(=O)NCCCCc2ccccc2)C(=O)N1CCC1=CCCCC1 (stereo unspecified)	0.6%	-0.7%	·
CC1(C)C2CC[C@]3(C)C(CC=C4[C@@H]5C[C@@](C)(CO)[C@@H](O)C[C@]56C[C@@H](OC6=O)[C@]43C)[C@@]2(C)CC[C@@H]1O (stereo partly specified)	-0.3%	0.2%	·
COC(=O)C[C@H]1C[C@@H]2c3cc(NC(=O)NC4CCCC4)ccc3O[C@@H]2[C@@H](CO)O1	1.0%	0.4%	·
CCC(=O)Nc1c(C#N)c2nc3ccccc3nc2n1-c1ccc(C)cc1	-11%	3.2%	·
O=c1[nH]cnc2c1ncn2C1OCC(O)C(O)C1O (stereo unspecified)	1.6%	0.1%	·
C[C@H](NC(=O)c1ncn2c1C(=O)NC[C@H]2C)c1ccccc1	-0.8%	-0.6%	·
COc1ccc([C@H]2C[C@H](O)[C@@H](n3cc(COC(=O)c4ccccc4)nn3)CN2Cc2cccs2)cc1	-8.2%	0.8%	·
CC(C)(C)OC(=O)[C@H](Cc1ccccc1)NC(=O)c1[nH]cnc1C(=O)Nc1ccccc1F	-13%	7.3%	·
Cc1cccc(NC(=O)c2ncn3c2C(=O)N[C@@H](C)C3)c1	-0.2%	-0.5%	·
COc1ccc(S(=O)(=O)N(C)C[C@@H]2OCc3cnnn3CCCC(=O)N([C@@H](C)CO)C[C@@H]2C)cc1	0.1%	3.1%	·
O=C(Cn1sc2ccccc2c1=O)Nc1ccc(Cl)cc1	-3.2%	-0.4%	·
CCc1cc(-c2nnn(CCC3COCCO3)c2CC)cc(CC)c1-c1cn(Cc2ccccc2)nn1 (stereo unspecified)	-0.9%	2.7%	·
O=C(c1cnn2c(-c3ccccc3)cc(-c3ccccc3)nc12)N1CCN(Cc2ccccc2)CC1	-15%	2.7%	·
COc1ccccc1C#CC1=CC(=O)CC(C)(C)C1	-3.1%	4.1%	·
CCCCN1C(=O)C(CC(=O)NCc2cccc3ccccc23)CC(C(=O)N(C)C)=C1C (stereo unspecified)	-1.6%	0.9%	·
CCC1NC(=O)c2cc3ccccc3cc2-n2c1nc1cc(OC)c(OC)cc1c2=O (stereo unspecified)	-0.8%	3.6%	·
COc1ccc([C@H]2CN(c3ccccc3)C(=O)[C@@H]2CC(=O)Nc2ccccc2)cc1	-6.8%	0.2%	·
COC(=O)C1CC(O)C(O)C(O)C1 (stereo unspecified)	-0.3%	1.4%	·
CCc1ccc(C#CC2=CC(=O)CC(C)(C)C2)cc1	-5.0%	-1.0%	·
Cc1cn([C@H]2C[C@H](O)[C@@H](CNC(=O)[C@H](N)Cc3cn(COCc4ccccc4)cn3)O2)c(=O)[nH]c1=O	1.4%	1.8%	·
C[C@@H]1CN([C@@H](C)CO)C(=O)CCCn2nncc2CO[C@@H]1CN(C)S(=O)(=O)c1ccc2c(c1)OCCCO2	0.5%	-0.1%	·
CC(C)(C)OC(=O)NCc1ccc(CNC(=O)c2[nH]cnc2C(=O)Nc2ccccc2F)cc1	24%	2.2%	·
Cc1cc(CNC[C@H]2O[C@@H](n3ccc(N)nc3=O)[C@H](O)[C@@H]2O)no1	-1.7%	0.4%	·
COc1cc(O)c2c(=O)c3c(O)ccc(O)c3oc2c1	-1.2%	0.6%	·
C[C@@H]1CN([C@@H](C)CO)C(=O)CCCn2nncc2CO[C@H]1CN(C)S(=O)(=O)c1ccc(-n2cccn2)cc1	-0.7%	2.5%	·
COCOCCn1cc(CN2CCS(=O)(=O)N(Cc3ccc(-c4ccc(Cl)nc4)cc3)C(CC(C)C)C2=O)nn1 (stereo unspecified)	-5.1%	1.6%	·
CCC[C@H]1CN(c2ccc(OC)cc2)C(=O)[C@@H]1CC(=O)NC	-0.2%	1.4%	·
O=C(c1ccoc1)N1CCN(c2cc(-c3ccccc3)nc3cc(-c4ccccc4)nn23)CC1	4.1%	3.6%	·
CCN(CC)C(=O)C1=C(C)N(CCC2=CCCCC2)C(=O)C(CC(=O)NCCc2ccccn2)C1 (stereo unspecified)	-2.0%	0.2%	·
Cc1[nH]c2ccccc2c1/C=C/c1ccc2ccccc2n1	-8.0%	·	23
COc1cc2nc(C#Cc3nc4cc(OC)c(OC)cc4[nH]3)[nH]c2cc1OC	4.6%	·	-0.3
Cc1cccc2[nH]cc(/C=C3/C=Nc4ccccc43)c12	-8.9%	·	10
C(=Nc1cnc2ccccc2c1)c1ccc2ccccc2n1	4.6%	·	0.3
O=C(C[N+]1(CCc2ccccc2)CCOCC1)c1cccc([N+](=O)[O-])c1	0.4%	·	-0.4
COc1cc2nc(CC(O)c3nc4cc(OC)c(OC)cc4[nH]3)[nH]c2cc1OC (stereo unspecified)	-11%	·	-0.4
O=C(C[n+]1c(Cl)cc(Cl)c2ccccc21)c1ccccc1	-0.7%	·	-0.9
CCOC(=O)c1ccc(N(C(=O)c2ccccc2)c2ccccc2)cc1	-4.3%	·	0.0
CC1Cc2ccccc2C[N+]1(C)CC(=O)c1cccc([N+](=O)[O-])c1 (stereo unspecified)	-4.4%	·	-0.3
COc1ccc(-c2c(-c3ccc4c(c3)OCO4)noc2-c2ccsc2)cn1	-26%	·	2.1
Nc1[nH]c(=S)[nH]c(=O)c1N	-4.7%	·	-0.5
CCCCCCCCCCCCCCCCCCN(CCCCCCCCCCCCCCCCCC)c1ccccc1	0.0%	·	0.1
O=C(C[N+]1(CCc2ccccc2)CCOCC1)c1ccccc1	1.1%	·	0.2
CCCCNC(=O)[C@@H]1CC=C[C@@H]2CCN(CCCC)C(=O)[C@@H]21	1.6%	·	-0.7
CC(c1ccc(N(C)C)cc1)c1ccnc2ccccc12 (stereo unspecified)	-1.7%	·	-0.1
O=S1(=O)CCO[C@H]2CCCC[C@@H]2N1Cc1ccccc1F	-1.0%	·	-1.2
O=S1(=O)CCO[C@H]2CCCC[C@@H]2N1Cc1ccccc1	-0.6%	·	-1.2
Cc1cc[n+](CCC2CCCCC2)c2ccccc12	4.1%	·	-0.6
O=Cc1ccc(I)cc1	0.0%	·	0.1

Profiles from above.
Entry for O=C(C[N+]1(CCc2ccccc2)CCOCC1)c1ccccc1 = ClpP mod = 1.1%; PINK1 modulator = ·; TRPML1 agonist = 0.2
Entry for CC(c1ccc(N(C)C)cc1)c1ccnc2ccccc12 (stereo unspecified) = ClpP mod = -1.7%; PINK1 modulator = ·; TRPML1 agonist = -0.1
Entry for C[C@@H]1CN([C@@H](C)CO)C(=O)CCCn2nncc2CO[C@H]1CN(C)S(=O)(=O)c1ccc(-n2cccn2)cc1 = ClpP mod = -0.7%; PINK1 modulator = 2.5%; TRPML1 agonist = ·

The main list resumes, repeating the two entries before the break.
Structure	ClpP mod	PINK1 modulator	TRPML1 agonist
Cc1cc[n+](CCC2CCCCC2)c2ccccc12	4.1%	·	-0.6
O=Cc1ccc(I)cc1	0.0%	·	0.1
CCCCNC(=O)[C@@H]1CC=C[C@@H]2CCN(Cc3ccccc3)C(=O)[C@@H]21	-0.4%	·	-0.8
Cc1ccc2nccnc2c1	-13%	·	-0.2
Cc1ccnc2ccc([N+](=O)[O-])cc12	-9.8%	·	-0.6
Cc1cc2c(cc1C)N[C@]1(C[C@H]3CCCC(=O)N4CC[C@@H](C1)[C@@H]34)C(=NC1CCCCC1)N2	2.0%	·	-0.6
O=C1C[C@H]2C=CCc3cccc(c32)CN1Cc1ccc(F)cc1	-2.3%	·	-0.9
O=C1CCC[C@@H]2C[C@@]3(C[C@@H]4CCN1[C@H]24)Nc1cc([N+](=O)[O-])ccc1NC3=NCc1ccccc1	-1.4%	·	1.7
O=C(O[C@H]1[C@H](Cc2ccccc2)NS(=O)(=O)[C@H]2CC3C=C[C@]12O3)c1ccc(Br)cc1	-2.3%	·	-0.2
O=C(Cc1ccc[nH]c1=O)c1ccc(F)cc1	0.0%	·	-0.3
Cc1ccnc2c(N)cccc12	0.0%	·	0.1
CCCC[n+]1c(C)ccc2ccccc21	3.3%	·	-0.1
O=C(C[N+]12CN3CN(CN(C3)C1)C2)c1ccc(I)cc1	-2.6%	·	-0.1
Clc1ccc[n+](CCCCC[n+]2cccc(Cl)c2)c1	-15%	·	-0.6
Cn1cc(/C=C/c2ccc3ccccc3n2)c2ccccc21	-6.9%	·	8.6
Cc1c(CCO)sc[n+]1CCc1ccccc1	-0.8%	·	-0.4
CC[C@@H]1[C@H]2CCCC(=O)N3CC[C@@H](C[C@@H]1OC(=O)Nc1ccc4c(c1)OCO4)[C@@H]23	-1.4%	·	-0.2
Cc1ccc2[nH]cc(C(O)c3c[nH]c4ccc(C)cc34)c2c1	-0.7%	·	-0.2
COc1ccc(CN2CC[C@H]3C=CC[C@@H](C(=O)NCc4cccnc4)[C@H]3C2=O)cc1OC	-2.8%	·	0.0
CCCCNC(=O)[C@@H]1CC=C[C@@H]2CCN(Cc3ccc(OC)c(OC)c3)C(=O)[C@@H]21	1.8%	·	-1.2
CN(C)c1ccc(C=O)cc1[N+](=O)[O-]	1.0%	·	-0.4
O=C(Nc1ccc(Cl)cc1Cl)[C@@H]1CC=C[C@@H]2CCN(C3CCCCC3)C(=O)[C@@H]21	0.3%	·	-0.7
CCOC(=O)/C=C/c1ccc2c(c1)S(=O)(=O)N(C1CCCC1)[C@H]2CC(=O)OCC	-13%	·	2.2
CCC[C@H]1COCCS(=O)(=O)N1Cc1ccc(F)cc1	-0.1%	·	-1.0
COc1ccc2[nH]c(C)cc2c1	-11%	·	-0.9
COc1cc(OC)c(OC)cc1/C=c1\[nH]c(=O)/c(=C/c2cc(OC)c(OC)cc2OC)[nH]c1=O	2.5%	·	0.2
CC(C)(C)OC(=O)NS(=O)(=O)NOCc1ccccc1	1.7%	·	-1.0

By substructure, the compounds so far with a Cl atom.
Structure	ClpP mod	PINK1 modulator	TRPML1 agonist
O=C(Cn1sc2ccccc2c1=O)Nc1ccc(Cl)cc1	-3.2%	-0.4%	·
COCOCCn1cc(CN2CCS(=O)(=O)N(Cc3ccc(-c4ccc(Cl)nc4)cc3)C(CC(C)C)C2=O)nn1 (stereo unspecified)	-5.1%	1.6%	·
O=C(C[n+]1c(Cl)cc(Cl)c2ccccc21)c1ccccc1	-0.7%	·	-0.9
Clc1ccc[n+](CCCCC[n+]2cccc(Cl)c2)c1	-15%	·	-0.6
O=C(Nc1ccc(Cl)cc1Cl)[C@@H]1CC=C[C@@H]2CCN(C3CCCCC3)C(=O)[C@@H]21	0.3%	·	-0.7

No new results follow: an excerpt of the list.
Structure	ClpP mod	PINK1 modulator	TRPML1 agonist
CCCCNC(=O)[C@@H]1CC=C[C@@H]2CCN(Cc3ccccc3)C(=O)[C@@H]21	-0.4%	·	-0.8
Cc1ccc2nccnc2c1	-13%	·	-0.2

(next part)
Structure	ClpP mod	PINK1 modulator	TRPML1 agonist
COc1ccc(CN2CC[C@H]3C=CC[C@@H](C(=O)Nc4nccs4)[C@H]3C2=O)cc1OC	0.9%	·	-0.7
CN(C)c1cccc2ccccc12	4.2%	·	-0.3
Cc1ccnc2c(Cl)ccc(Cl)c12	-1.1%	·	-1.0
CC(C)(C)[C@H]1CCC(=O)N(CCSc2ccc(Br)cc2)CC1	1.3%	·	0.0
O=S1(=O)CCOCCCN1Cc1ccc(F)cc1	-1.0%	·	-0.4
CCCCN(CCC#N)c1ccc(/C=C/c2ccnc3ccccc23)cc1	0.9%	·	16
CC[N+]1(CC(=O)c2ccc(OC)cc2)CCCCC1	0.9%	·	0.2
O=C(C[N+]1(CC(O)c2ccccc2)CCOCC1)c1ccccc1 (stereo unspecified)	-1.2%	·	-0.4
Nc1ccc(Cc2ccc(C=O)cc2)cc1	0.0%	·	2.7

Screening results as filed in PubChem.
